# Screening results: PubChem, National Center for Advancing Translational Sciences (NCATS)
# HPGD block = HPGD (human) dehydrogenase inhibition; purified HPGD, NADH fluorescence kinetic, PGE2 substrate; Potency, µM, inactives show top-dose activity change, negative = inhibition, usual class: inhibitors; hit rate 4.3% among 150,000; AID 894; active = well fitted inhibition curve with a large enough effect (not every such curve was filed as active); inconclusive = small, poorly fitted or top-dose-only effect, or another doubt; inactive = no such curve, though single readings can be large or run the other way;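 further: top concentration of the series not given in the record; plate controls included wells without enzyme; inactives centre near -10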
# Target sequence (P15428 whole entry, looked up): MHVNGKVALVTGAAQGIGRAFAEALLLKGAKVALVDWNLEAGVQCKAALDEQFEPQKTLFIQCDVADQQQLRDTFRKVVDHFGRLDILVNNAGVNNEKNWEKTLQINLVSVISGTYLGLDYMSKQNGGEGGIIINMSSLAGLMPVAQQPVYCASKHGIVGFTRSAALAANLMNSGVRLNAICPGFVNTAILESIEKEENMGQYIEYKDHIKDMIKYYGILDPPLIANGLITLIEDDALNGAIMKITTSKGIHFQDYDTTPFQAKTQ
#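 20 nM HPGD preincubated 15 min at room temperature with compound in 50 mM Tris-HCl pH 8, 0.01% Tween 20. Started with 1 mM NAD+ and 30 uM prostaglandin E2; NADH fluorescence (360/450 nm) read 5 times over 30-s intervals, last minus first.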
# * marks the source's active call; other numbers are inactive results; ? = inconclusive; & = joins results of further samples. On the % scale 0 is the no-effect control and ±100 the full control effect; potency means the concentration at half of the fitted maximal effect. Some of the compounds tested; count on the stated rates, not on these rows.
SMILES,HPGD block
COC(=O)C1=C(Cn2cnc3ccccc32)NC(=O)NC1c1cc(C)ccc1C (stereo not drawn),-14%
COc1cc(NS(=O)(=O)c2ccc(NC(=S)NC(=O)c3sc4ccccc4c3Cl)cc2)nc(OC)n1,25µM*
Cc1ccccc1-c1nc2sc(-c3ccccc3)cc2c(=O)o1,-7%
CCOC(=O)CSc1nnc(CNC(=O)c2ccccc2OC)n1-c1ccc(OC)cc1,-17%
Cc1cccc(OCCCc2c(C)n[nH]c2C)c1,-10%
COC(=O)c1c(NS(=O)(=O)Cc2ccccc2)sc2c1CCCC2,-9%
NS(=O)(=O)c1ccc(NC(=O)COC(=O)C2(c3ccccc3F)CCCC2)cc1,-5%
O=C(NC1CCCCC1)c1ccc(S(=O)(=O)N2CCCCC2)cc1,-13%
O=C(Cn1nnc(-c2ccccc2F)n1)NCCc1ccccc1,-25%
Cc1onc(-c2c(Cl)cccc2Cl)c1C(=O)NCC1CCCO1 (stereo not drawn),-4%
Cc1cc(/C=C(\C#N)C(=O)NCc2ccco2)c(C)n1C1CCCC1,-11%
NCC/C=C1/c2ccccc2CSc2ccccc21,-2%
Cc1nn(C)c2nc(NNC(=O)Nc3cc(Cl)nc(Cl)c3)cc(C(C)C)c12,-9%
Cc1c(N=Cc2c(O)n(C)c(=O)c3ccccc23)c(=O)n(-c2ccccc2)n1C,-9%
CC1(c2ccccc2)NC(=O)N(CC(=O)Nc2cccc(C#N)c2)C1=O (stereo not drawn),-14%

# In the list so far, these have four or more nitrogen atoms.
SMILES,HPGD block
COC(=O)C1=C(Cn2cnc3ccccc32)NC(=O)NC1c1cc(C)ccc1C (stereo not drawn),-14%
COc1cc(NS(=O)(=O)c2ccc(NC(=S)NC(=O)c3sc4ccccc4c3Cl)cc2)nc(OC)n1,25µM*
CCOC(=O)CSc1nnc(CNC(=O)c2ccccc2OC)n1-c1ccc(OC)cc1,-17%
O=C(Cn1nnc(-c2ccccc2F)n1)NCCc1ccccc1,-25%
Cc1nn(C)c2nc(NNC(=O)Nc3cc(Cl)nc(Cl)c3)cc(C(C)C)c12,-9%
Cc1c(N=Cc2c(O)n(C)c(=O)c3ccccc23)c(=O)n(-c2ccccc2)n1C,-9%
CC1(c2ccccc2)NC(=O)N(CC(=O)Nc2cccc(C#N)c2)C1=O (stereo not drawn),-14%

# (listing goes on)
SMILES,HPGD block
OCc1nc(CO)n(Cc2ccccc2)n1,-18%
Cc1cc(=O)oc(C)c1C(=O)NCC(C)NC(=O)c1c(C)cc(=O)oc1C (stereo not drawn),-8%
CCOc1cc(S(=O)(=O)N2CCCC2)ccc1Cl,-6%
CCC(=O)N1CCc2cc(Br)cc(S(=O)(=O)CC(=O)OC)c21,-10%
Cn1cccc1C(=O)N1CCC2(CCN(C(=O)Nc3cccc(F)c3)CC2)CC1,-1%
Cc1ccc(C(C(=O)NCc2ccco2)N(C(=O)CNC(=O)c2cccs2)c2c(C)cccc2C)cc1 (stereo not drawn),3%
Cc1cc(C)c(-c2csc(NC(=O)c3cc([N+](=O)[O-])ccc3N3CCOCC3)n2)c(C)c1,-12%
C/C(Sc1nnc(Cc2ccccc2)o1)=C(/O)c1ccccc1,-4%
Nc1ccc(Nc2nc(-c3ccncc3)cs2)cc1,-8%
O=C(O)c1ccc(Cc2ccccc2C(=O)O)cc1,-6%
Cn1c(SCc2nc3ccccc3[nH]2)nnc1-c1cccnc1,-4%
CC(=O)Nc1nc(C)c(S(N)(=O)=O)s1,-5%
CCOC(=O)N1CCN(c2cc(=O)n(C3CCCCC3)c(=O)[nH]2)CC1,-3%
CCCCn1c(SCc2nc3ccccc3s2)nc2cc(S(N)(=O)=O)ccc21,-7%
COC(=O)C1=C(C(=O)OC)[C@@H]2N(Cc3ccccc3)c3ccccc3[C@@]23C[C@@H](C(=O)OC)N(S(=O)(=O)c2ccc(C(F)(F)F)cc2)C3=N1,-11%
CNCCCCc1cnc(C)c2[nH]c3ccccc3c12,?
CCN(Cc1ccccc1)C(=O)C1CCN(Cc2ccc(OC)c(OC)c2OC)CC1,-4%
Clc1ccc(OCc2nnnn2-c2ccccc2)cc1,-13%
Brc1ccccc1C1=Nn2c(nnc2-c2ccccc2)SC1,16µM*
O=c1c2cnn(-c3ccccc3)c2nnn1/N=C/c1cccnc1,-7%
CC(=O)NCCn1c(C)cc2ccccc21,-7%
CCOc1ccc(OCC)c(NC(=O)C2CCN(c3ncccn3)CC2)c1,-5%
O=C(CN1C(=O)c2cccc3cccc1c23)Nc1ccc2c(c1)OCO2,-10%
Cc1cccc(N=C2NC(=O)/C(=C\c3cccs3)S2)c1,-16%
CC1(C)Cc2nc3oc4c(NCc5ccccc5)ncnc4c3cc2CO1,?
CC(=O)Nc1ccc(-c2nnc(SCc3c(C)cc(C)cc3C)n2C)cc1,-11%
COc1ccc(N(Cc2ccccc2)C(=O)CSc2nnc(Cn3nnc4ccccc43)o2)cc1,-13%
CC(C)(C)NC(=O)[C@H]1CC[C@H]2[C@@H]3CC[C@H]4NC(=O)C=C[C@]4(C)[C@H]3CC[C@]12C,-11%
Cc1cc(C)n2nc(S(=O)(=O)N(CC(C)C)CC(C)C)nc2n1,-4%
CCCCN(CCCC)CC(O)COc1ccccc1Br (stereo not drawn),-7%
O=C(CSc1nc2ccccc2o1)N1N=C(c2cccs2)CC1c1ccc(F)cc1 (stereo not drawn),?
CC1CCC(NC(=O)CN2CCC(n3nnc4cc(F)ccc43)CC2)CC1 (stereo not drawn),-7%
N#Cc1cn(-c2ccccc2)nc1-c1cc2ccccc2oc1=O,?
O=c1c(O)c(-c2ccccc2)oc2ccc3occc3c12,?
COC(=O)C1=C(C)NC(C)=C(C(=O)OC)C1c1ccc(-c2cccc(Cl)c2Cl)o1,?
O=C(Cc1ccccc1)NCC(=O)OCc1ccc([N+](=O)[O-])cc1,-11%
CCOc1ccccc1C1C(C(N)=O)=C(C)Nc2nc(-c3ccccc3Cl)nn21 (stereo not drawn),-14%
COc1ccc(C(=O)Nc2ccc(-c3ccc(NC(=O)c4ccc(OC)cc4)c(OC)c3)cc2OC)cc1,?
Cc1ccnc(NC(=O)Nc2ccc(F)cc2)c1,1%
O=C1NCCCCC1NC1CC(=O)N(c2ccccc2)C1=O (stereo not drawn),-4%
CC1=NN(c2ccccc2)C(=O)/C1=C/C=C/c1ccccc1,-11%
CN=C1CC(C)(C)CC(=O)/C1=C(/O)CCC(=O)NC,-1%
CCN1C(=O)C2C(C1=O)N1C(c3ccccc3)C3C(=O)N(CC)C(=O)C3N1C2c1ccccc1 (stereo not drawn),-5%
O=C(Nc1ccc(N2CCN(Cc3ccccc3)CC2)cc1)c1cccnc1,-11%
CC(C)C[C@H](NC(=O)[C@@H](O)[C@H](N)Cc1ccccc1)C(=O)O,-8%&-4%
COc1cc(/C=N/NC(=O)c2cccnc2)ccc1OC(=O)c1ccc2c(c1)OCO2,-7%
CCOC(=O)c1cccc(S(=O)(=O)N(CCO)Cc2cc3cc(OC)c(OC)cc3[nH]c2=O)c1,-24%
O=C(NNC(=O)c1ccccc1Br)c1cccc(Cl)c1,-23%
CCOC(=O)/C=c1\s/c(=C(\C#N)C(=O)OCC)n(-c2ccccc2)c1=O,-6%
CCc1ccc2oc(-c3cccc(N)c3)nc2c1,?
COc1cc(/C=C(\NC(=O)c2ccccc2)C(=O)Nc2cccc(O)c2)c([N+](=O)[O-])cc1OC,-8%
CN1CCN(c2nc(C(N)=O)cc(-c3ccccc3)n2)CC1,-7%
Cc1sc(N/N=C/c2ccco2)nc1-c1ccccc1,-4%
Cc1ccccc1OCc1nnc(SCC(=O)Nc2ccc3c(c2)oc2ccccc23)n1C,?
CCOC(=O)c1sc(NC(=O)Nc2ccccc2)cc1C,-13%
c1cc(CNc2ccc(N3CCOCC3)cc2)ccn1,-3%
CC(=O)N1C2(C=CC1(C)C(=O)NCc1ccc(C)o1)CCCCC2 (stereo not drawn),-10%
COc1ccc2nc(NC(=O)CCN3C(=S)NC(C)(C)CC3C)sc2c1 (stereo not drawn),-11%
CCn1c2ccccc2c2cc(NC(=O)c3cccc([N+](=O)[O-])c3)ccc21,-12%
Cc1ccc(CCN2CC(C(=O)NC3CCCC3)CC2=O)cc1 (stereo not drawn),-3%
# Further compounds:
SMILES,HPGD block
Cc1cc(C)n(Cc2ccc(C(=O)Nc3ccc(Br)cc3C)o2)n1,4%
CCOC(=O)Cn1nnnc1CN(Cc1cccs1)Cc1cc2cc(C)cc(C)c2[nH]c1=O,?
O=c1cc(O)sc2ccccc12,-20%
Cc1nn(-c2ccccc2)c(Cl)c1C(=O)OC(C)C(=O)Nc1ccc2c(c1)OCO2 (stereo not drawn),-13%
CC(C)[C@@H](CC(=O)N[C@@H]1CCNC[C@H]1C(=O)N[C@H](CC(=O)N[C@@H](CCC(=O)O)CC(=O)O)Cc1ccccc1)NC(=O)C[C@H](Cc1c[nH]c2ccccc12)NC(=O)[C@@H]1CNCC[C@H]1N,-6%
O=c1nc(-c2ccccc2)cc(-c2ccccc2)[nH]1,?
Cc1nc(SCC(=O)NCc2ccco2)c2c3c(sc2n1)CCCC3,14µM*
Cc1nn(Cc2ccc(C(=O)n3cccn3)o2)c(C)c1Br,-4%
CC(OC(=O)c1ccc(S(=O)(=O)NCc2ccco2)cc1)C(=O)Nc1ncc(Cl)cc1Cl (stereo not drawn),-8%
COc1ccc(-c2c3c(=O)n(C)c(=O)n(C)c3cn2N2CCOCC2)cc1,-9%
CCOC(=O)c1cnc2c(Cl)cccc2c1NCCN1CCOCC1,-6%
COc1ccc(C2N(c3cc(Cl)ccc3OC)C(=O)C3CCCN32)cc1 (stereo not drawn),-13%
c1coc(CNc2ncnc3sc4c(c23)CCCCC4)c1,-26%
CC(C)(C)NC(=O)NC(=O)COC(=O)c1ccc2c(c1)S(=O)(=O)N=C1CCCCCN12,-12%
CCc1nc(NCCCCCO)c2nnn(Cc3ccccc3F)c2n1,-7%
CC1(C)CC(=O)C2=C(C1)OC(N)=C([N+](=O)[O-])C2c1cccs1 (stereo not drawn),?
Cc1nc2cc(O)ccc2n1C,-10%
Cc1ccc(CCNc2ccccc2)c[n+]1[O-],-13%
CC(C)CCCC(C)C1CCC2C3CC=C4CC(=O)CC[C@@]4(C)C3CC[C@@]12C (stereo partly drawn),-10%
CC(CCc1ccco1)NC(=O)Cn1nc(Cc2ccncc2)c2ccccc2c1=O (stereo not drawn),-2%
CC(C)N(c1ccccc1)c1ccc(NC(=O)COC(=O)CCN2C(=O)c3cccc([N+](=O)[O-])c3C2=O)cc1,-11%
COC(=O)c1sc2nc3c(cc2c1N)COC(C)(C)C3,?
CCS(=O)(=O)N1CCC(C(=O)NCCN2CCOCC2)CC1,-11%
COc1ccccc1NC(=O)C1CC(=O)N(c2ccc(F)cc2)C1 (stereo not drawn),3%
O=S(=O)(NCCc1ccncc1)c1ccc(S(=O)(=O)N2CCCCCC2)cc1,-17%
COC(=O)[C@@]1(Cc2ccc(OC)cc2)[C@H]2c3cc(C(=O)N4CCCC4)n(Cc4ccc(C)c(F)c4F)c3C[C@H]2CN1C(=O)c1ccccc1,-15%
O=C1C2CC=CCC2C(=O)N1c1ccc(NCCc2ccccc2)c([N+](=O)[O-])c1 (stereo not drawn),-12%
CCCCCOc1ccc(OC(=O)c2ccncc2)cc1,-9%
COC(=O)CCC(=O)NNC(=O)c1cccc(Cl)c1,-7%
Cc1ccc(NC(=O)CN(C)C(=O)COc2ccc(C(=O)c3ccc(F)cc3)cc2)cc1,-22%
CCOc1ccc(C(=O)NCCCN2CCCC2=O)cc1,-11%
O=C(N/N=C/c1cccc(F)c1)c1c(O)c2c([nH]c1=O)CCCC2,-18%
CCOC(=O)c1c(CN2CCN(C)CC2)oc2ccc(O)cc12,-13%
O=C(CSc1nnc(Cc2csc(Nc3cccc(Cl)c3)n2)o1)N1CCc2ccccc21,-1%
Cc1c(NC(=O)c2cc3nc(-c4ccccc4)cc(C)n3n2)c(=O)n(-c2ccccc2)n1C,?
COc1ccccc1NC(=O)NCCN1C(=O)C2C3C=CC(C3)C2C1=O (stereo not drawn),0%
CCOC(=O)c1[nH]c2ccccc2c1NC(=O)c1ccc(S(=O)(=O)N(C)C)cc1,1%
COc1ccc(N2CCN(C(=O)CSc3nnc(C)c(=O)[nH]3)CC2)cc1,-9%
CCOC(=O)CCCN,-4%
Cc1ccc(C2=NC(C)(C)N=C2SCC(=O)Nc2ccc(Cl)cc2)cc1,-24%
Cc1ccc(-c2csc(NC(=O)CSc3ncn(-c4ccccc4)n3)n2)cc1,-14%
Cc1ccc(NC(=O)CN2C(=O)N/C(=C/c3ccc(C)o3)C2=O)cc1,?
CCn1ncc(/C=N\NC(=O)Cc2ccc([N+](=O)[O-])cc2)c1C,-9%
O=C(CCS(=O)(=O)c1ccccc1)Nc1cccc(-c2nc3ccccc3s2)c1,?
CC(C)Nc1nc(C#N)nc(NC(C)C)n1,-9%

# Exported with bars between the fields: two of the compounds above.
molecule | HPGD block
Cc1ccc(C2=NC(C)(C)N=C2SCC(=O)Nc2ccc(Cl)cc2)cc1 | -24%
O=C(CSc1nnc(Cc2csc(Nc3cccc(Cl)c3)n2)o1)N1CCc2ccccc21 | -1%

# Additional entries
SMILES,HPGD block
N#CC12CCCCC1CC1CCCCC1(C#N)N2CCO (stereo not drawn),1%
O=C(CC1C(=O)N(c2ccccc2)C(=O)N1C1CCCCC1)Nc1ccccc1 (stereo not drawn),-11%
N#Cc1cc2c(nc1SCC(=O)N1CCOCC1)CCCCC2,-3%
COc1ccccc1NC(=O)Cn1cnc2c(cnn2-c2ccccc2)c1=O,-13%
C[C@@]12C(=O)OC(=O)[C@@]1(C)C1CCC2O1,-4%
CC(OC1=CC(=O)CCC1)C(=O)c1ccccc1 (stereo not drawn),-6%
COC(=O)C1=C(C)Nc2nnnn2C1c1ccccc1Cl (stereo not drawn),-9%
CC(/C=C/c1ccccc1)=N/NC(=O)c1cnccn1,-18%
